MenB inh: blocks the Mycobacterium tuberculosis MenB enzyme; P9WNP5; MenB enzyme assay, absorbance read-out; some hits fall short of the stated cut; inhibition, %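 (about 12 µg/mL by stock and volumes)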; 100,000 tested, 0.43% active;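 active = mean of two replicates above 30%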;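 also: 0% = no compound and 100% = wells with inactive enzyme; the first replicate is given; strong numbers were not always called active; inactives centre near -10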
Target sequence (P9WNP5 whole entry, looked up): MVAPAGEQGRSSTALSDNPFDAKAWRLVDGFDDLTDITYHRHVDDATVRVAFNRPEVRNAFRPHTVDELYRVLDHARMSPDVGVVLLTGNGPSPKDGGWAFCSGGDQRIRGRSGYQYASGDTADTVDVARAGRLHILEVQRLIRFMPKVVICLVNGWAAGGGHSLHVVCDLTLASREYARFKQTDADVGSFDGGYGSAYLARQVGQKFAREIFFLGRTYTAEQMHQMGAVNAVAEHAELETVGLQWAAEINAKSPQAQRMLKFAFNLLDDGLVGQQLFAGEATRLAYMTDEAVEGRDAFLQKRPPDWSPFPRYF
MbtI inh: blocks the Mycobacterium tuberculosis siderophore enzyme MbtI. purified MbtI enzyme, fluorescence intensity read-out. inhibition, %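 (about 17 µg/mL by stock and volumes)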. 100,000 tested, 0.89% active. AID 493033;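 active = above 50% in both replicates, above 80% if mildly self-fluorescent; inactive = the rest, strongly fluorescent compounds included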;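 also: 0% = mean of negative and 100% = mean of positive controls; one replicate is shown; some compounds called inactive have numbers as strong as hits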
Polio RdRp inh: inhibitors of poliovirus RNA polymerase binding and polymerization. P03300. poliovirus polymerase elongation, fluorescence polarization; hits give low values. % elongation, % (compound at 16.7 µg/mL). 150,000 tested, 0.66% active. AID 588519; in the data active = % elongation below about 90%; also: some results filed as inactive read as strong as hits
Target sequence (P03300 1749-2209 limits assumed): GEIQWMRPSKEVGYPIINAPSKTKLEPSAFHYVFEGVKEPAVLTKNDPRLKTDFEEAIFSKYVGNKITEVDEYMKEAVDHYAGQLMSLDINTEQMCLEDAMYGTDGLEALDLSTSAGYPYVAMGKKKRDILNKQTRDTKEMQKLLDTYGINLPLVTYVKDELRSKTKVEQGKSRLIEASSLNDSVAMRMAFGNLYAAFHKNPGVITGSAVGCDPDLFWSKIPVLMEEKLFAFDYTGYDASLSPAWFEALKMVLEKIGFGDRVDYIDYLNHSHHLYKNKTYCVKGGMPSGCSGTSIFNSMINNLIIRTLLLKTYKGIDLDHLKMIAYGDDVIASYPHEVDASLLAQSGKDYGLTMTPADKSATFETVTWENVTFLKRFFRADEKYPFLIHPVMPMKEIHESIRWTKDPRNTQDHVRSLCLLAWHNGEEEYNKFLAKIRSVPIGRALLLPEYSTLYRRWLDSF
Polio RdRp inh intensity: also measured in Polio RdRp inh; calls as there; % elongation; measured here: total intensity read-out; formula for this scale not given here;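 total fluorescence in place of polarization; lower means less elongation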
* = called active by the depositor; i = inactive; x = no result given; & = joins results of further samples.

SMILES	MenB inh	MbtI inh	Polio RdRp inh	Polio RdRp inh intensity
COc1ccc(C2(CN)CCOCC2)cc1	-25	-9	101	98
CN(C)S(=O)(=O)N1CCCc2ccccc21	18	7	102	103
CC1CCCN(CC(=O)c2ccc(Cl)s2)C1 (stereo not drawn)	-34	1	115	130
O=c1nc2c(-c3cccc(C(F)(F)F)c3)n[nH]n2c2ccccc12	-14	-70	102	99
CCOC(=O)C1=C(CC)Nc2ccccc2N=C1NC(=O)C1Cc2ccccc2CN1S(=O)(=O)CC (stereo not drawn)	-5	5	103	96
CONS(=O)(=O)c1ccc(OCC(=O)OC)cc1	-9	-23	103	102
Cc1cccc(N=C(N2CCOCC2)P(=O)(N2CCOCC2)N2CCOCC2)c1	-20	13	96	103
CN(CC(=O)OC1CCOC1=O)S(=O)(=O)c1ccc(Cl)cc1 (stereo not drawn)	4	13	102	105
COc1ccc(C(CC(=O)NC2CC2)n2cccc2)cc1 (stereo not drawn)	-15	-9	105	104
O=C(Cc1ccc(Cl)cc1)c1ccc(Cl)cc1	x	-10	99	99
COc1cccc(NC(=O)N(Cc2cc3ccc(C)cc3n3nnnc23)CC2CCCO2)c1 (stereo not drawn)	-86	3	105	98
O=C(Cn1cccc1)N1CCN(C(c2ccccc2)c2ccccc2)CC1	-2	-3	103	108
CCc1ccc(NC(=O)Cn2nc(-c3ccc(OC)cc3)ccc2=O)cc1	-22	-10	100	98
COC1=CC(=O)O[C@@H](/C=C/c2ccccc2)C1	-2	-6	100	102
Cc1cccc(C)c1NC(=O)CCC(=O)O	-7	1	102	103
Cc1ccc(Nc2nc(C)nc3c2oc2ccccc23)cc1	-21	x	106	99
CCCC1CC(C)(c2csc(NCC)n2)OC1=O (stereo not drawn)	-33	8	104	99
CCCCNC(=O)c1cccc(N2CCCC2=O)c1	-3	-5	102	104
O=C(NC1CCCCC1)c1c[nH]c2ccccc2c1=O	-27	x	105	100
COc1ccc(C(=O)N2CCC(C(=O)Nc3ccc4c(c3)OCCO4)CC2)cc1	-8	5	102	100

Gathered by group, the compounds so far with an aryl methoxy group.
SMILES	MenB inh	MbtI inh	Polio RdRp inh	Polio RdRp inh intensity
COc1ccc(C2(CN)CCOCC2)cc1	-25	-9	101	98
COc1ccc(C(CC(=O)NC2CC2)n2cccc2)cc1 (stereo not drawn)	-15	-9	105	104
COc1cccc(NC(=O)N(Cc2cc3ccc(C)cc3n3nnnc23)CC2CCCO2)c1 (stereo not drawn)	-86	3	105	98
CCc1ccc(NC(=O)Cn2nc(-c3ccc(OC)cc3)ccc2=O)cc1	-22	-10	100	98
COc1ccc(C(=O)N2CCC(C(=O)Nc3ccc4c(c3)OCCO4)CC2)cc1	-8	5	102	100

The main list resumes, repeating the 5 entries before the break.
SMILES	MenB inh	MbtI inh	Polio RdRp inh	Polio RdRp inh intensity
Cc1ccc(Nc2nc(C)nc3c2oc2ccccc23)cc1	-21	x	106	99
CCCC1CC(C)(c2csc(NCC)n2)OC1=O (stereo not drawn)	-33	8	104	99
CCCCNC(=O)c1cccc(N2CCCC2=O)c1	-3	-5	102	104
O=C(NC1CCCCC1)c1c[nH]c2ccccc2c1=O	-27	x	105	100
COc1ccc(C(=O)N2CCC(C(=O)Nc3ccc4c(c3)OCCO4)CC2)cc1	-8	5	102	100
CCOc1ccc(/C(O)=C2\C(=O)C(=O)N(Cc3cccnc3)C2c2ccc(N(C)C)cc2)c(C)c1 (stereo not drawn)	15	9	102	102
CCN(CC(=O)c1ccc(C#N)cc1)C1CCCCC1	-15	-10	102	101
Cc1ccc2oc(=O)n(CC(=O)O)c2c1	-48	-6	101	101
Cc1ccn2c(NS(=O)(=O)c3ccc4c(c3)OCCO4)c(-c3cccs3)nc2c1	-20	-11	101	106
CN(C)C(=S)Nc1ccc2c(c1)OCO2	-38	92*	102	101
CSC1=NSC2=NS(=O)(=O)CCN12	1	0	103	108
Fc1ccc(Oc2ncnc3sccc23)c(Cl)c1	x	-10	104	110
COc1ccc(C2C(C#N)=C(N)Oc3cc(C)n(CCc4ccc(OC)c(OC)c4)c(=O)c32)cc1 (stereo not drawn)	-3	-2	102	104
CCCOc1ccc2cc(C(=O)c3ccccc3)c(=N)oc2c1	x	-6	101	104
CCOC(=O)Cn1nc2n(c1=O)-c1ccccc1SC2	-2	1	101	99
CCn1c(CCNC(=O)C2CCCCC2)nc2ccccc21	-2	0	101	103
O=C(CCn1c(=S)oc2ccccc21)N1CCn2c(nc3ccccc32)C1	-18	-1	102	102
COc1ccc(OC(=O)/C=C/c2sc3ccccc3c2C)cc1	-14	-4	105	101
CCOC(=O)C1=C(C)Nc2ccccc2N=C1NC(=O)c1oc2ccccc2c1COC	-23	5	108	123
O=C(CN(C(=O)Cn1nnc(-c2ccc(F)cc2)n1)c1ccccc1C(F)(F)F)NCc1ccco1	21	4	105	104
CCOc1ccc2c(c1)-c1c(ss/c1=N\NC(=O)c1cccnc1)C(C)(C)N2	-42	31	98	94
CCNCC(O)c1cccc(O)c1 (stereo not drawn)	11	-9&-20	102&100	103&102
CC(C)n1c(-c2ccccc2)nc2ccccc21	15	41	105	95
Cc1ccc(C(=O)Nc2cccc(/C=N/N3CCOCC3)c2)cc1	-55	-3	100	101
CCn1cc(C(=O)N=c2sc3ccccc3n2C)c(=O)c2ccc(C)nc21	-12	-10	109	110
Cc1ccccc1NC(=O)CSC1=Nc2ccccc2C2CC=NN12 (stereo not drawn)	-86	1	x	x
COc1ccc(Cc2nnc(SCC(=O)Nc3ccc(OC)cc3)o2)cc1	-43	6	105	105
Cc1cccc(C)c1NCc1n[nH]c(=S)n1-c1ccccc1	-39	x	102	105
COC(=O)c1c(N)c(C#N)c2n1CCC2	11	-14	92	115
CCN1CCC(N2CCN(c3ccccc3)CC2)CC1	1	-23	100	102
O=C(CCC1CCCCC1)NCc1cccs1	-20	-6	101	103
CC(C#N)Sc1nnc(-c2cccs2)n1CC1CCCO1 (stereo not drawn)	-44	-3	99	103
N#C/C(=C\c1ccc(-c2ccc(SC(F)F)cc2)o1)C(=O)Nc1nc2ccccc2s1	-32	-28	62	232
COC(=O)C1CCN(S(C)(=O)=O)CC1	25	-8	103	102
COc1ccc2c3c(ccc2c1)C(=O)[C@@](C)(CCC(=O)O)CC3	-22	x	107	108
CCN1CCc2c(sc3c2C(=O)NC(c2ccc(COc4ccc(Cl)c(Cl)c4)o2)N3)C1 (stereo not drawn)	-28	8	104	115
O=C(Cn1c(CCCO)nc2ccccc21)NC1CC1	2	-9	99	109
COC(=O)c1ccccc1NC(=O)CC1Sc2ccccc2NC1=O (stereo not drawn)	-17	-4	101	102
CCc1cccc(NC(=O)C(CC(C)C)NS(=O)(=O)c2ccc3c(c2)CCN3C(C)=O)c1 (stereo not drawn)	-17	-7	100	102
CCOC(=O)CN1C(=O)C2(OCCCCO2)c2ccccc21	-20	0	101	102
CN(C)C(CNS(=O)(=O)c1ccc(O)c(C(=O)O)c1)c1ccccc1 (stereo not drawn)	-8	31	101	107
NC(=O)c1cc2ccc(O)cc2oc1=O	i	68	98	108
CC(CNC(=O)Cn1c(=O)oc2ccccc21)c1ccccc1 (stereo not drawn)	9	-20	100	102
CCCCNC(=O)c1cc2c(s1)-c1c(C)nn(-c3ccccc3)c1CC2	-31	121	102	102
CC(=O)Oc1ccc2c3c(c(=O)oc2c1)CCCC3	x	-171	105	107
CCc1ccc(OCC(=O)OCC(=O)N2CCc3ccccc3C2)cc1	x	-5	99	100
CC(=O)N1c2ccc(S(=O)(=O)NCC3CCC(C(=O)N4CC(C)CC(C)C4)CC3)cc2CC1C (stereo not drawn)	11	19	101	101
COc1ccc(OC)c(NS(=O)(=O)c2cc(-c3cc(C)no3)ccc2C(C)C)c1	8	-7	101	101
CSc1cccc(NC(=O)CSc2nncn3c2cc2sccc23)c1	-61	0	97	94
CCCCn1c(CSc2ncccc2C(=O)O)nc2cc(S(=O)(=O)N3CCOCC3)ccc21	-26	-6	104	106
CCn1c(SCC(=O)NC2CCCC2)nnc1C(C)C	28	-6	100	102
CCC1C(=O)N=C(SCC(=O)Nc2nc3ccc(C)cc3s2)NC1=O (stereo not drawn)	16	8	101	99
CC(=O)Nc1cn(-c2ccccc2)nc1-c1ccccc1	x	-1	104	103
O=C1CCN(C(=O)CCc2nc3ccccc3s2)CC1	-10	3	109	112
Cc1ccn(S(=O)(=O)CC23CCC(CC2=O)C3(C)C)n1 (stereo not drawn)	-4	x	102	101
Cc1ccc(NC(=O)CC(NCCc2ccccc2)C(=O)O)cc1 (stereo not drawn)	-42	-15	104	105
CCOC(=O)N1CCC2(CC1)C(C(=O)C13CC4CC(CC(C4)C1)C3)C2(C#N)C#N (stereo not drawn)	-17	-1	102	100
CCC(CC)NC(=O)Nc1ccccc1C(F)(F)F	7	-12	102	103
O=C(O)Cn1ncc2ccccc2c1=O	-27	1	106	101
O=C(O)CCc1ccc(-c2ccc(F)cc2)n1CC1CCCO1 (stereo not drawn)	11	-35	99	99
C/C(C(=O)c1ccc(Cl)cc1)=[N+](/[O-])C1CCC/C1=N\O (stereo not drawn)	-17	15	102	102
CC1CCc2cc(F)ccc2N1C(=O)CN1C(=O)c2ccccc2S1(=O)=O (stereo not drawn)	-6	7	101	98
CCN(CC)C(=O)Nc1c(-c2c(Cl)cccc2Cl)noc1C	-13	-2	100	98
O=c1c(Br)c(N2CCOCC2)cnn1-c1ccccc1	-7	-199	106	111
O=C(COc1ccc(C(=O)c2ccc(F)cc2)cc1)NC1CCCC1	x	-2	99	101
(further entries)
SMILES	MenB inh	MbtI inh	Polio RdRp inh	Polio RdRp inh intensity
c1ccc(OCCNCCOc2ccccc2)cc1	-4	9	107	107
O=C1CN(Cc2cc(=O)oc3cc4c(cc23)CCC4)CCN1	2	-7	106	108
O=C(CSc1ccccc1C(=O)O)NC12CC3CC(CC(C3)C1)C2	x	1	102	102
Cc1cc(NS(=O)(=O)c2ccc(NC(=O)NC(C)(C(F)(F)F)C(F)(F)F)cc2)no1	-28	-2	104	102
Cc1cc(C(=O)N(Cc2ccccc2)c2ccccc2)no1	1	-12	99	102
COc1ccccc1-c1c(C)nn2c(SCC(=O)N3CCOCC3)cc(C)nc12	-5	6	100	103
CCOC(=O)C1CCCN(C(=O)c2cc(-c3ccc(F)cc3)nc3ccccc23)C1 (stereo not drawn)	x	-10	102	104
O=C(CSc1nnc(COc2cccc3ccccc23)n1CC1CCCO1)NC1CC1 (stereo not drawn)	-19	1	101	102
COC(=O)Nc1nc(-c2cccc(Br)c2)cs1	-7	5	100	98
CCc1cccc(NC(=O)Cc2noc3ccccc23)c1	-22	-2	102	94

Limited to MenB inh (4 entries from above):
SMILES,MenB inh
O=C(Cn1c(CCCO)nc2ccccc21)NC1CC1,2
COC(=O)c1ccccc1NC(=O)CC1Sc2ccccc2NC1=O (stereo not drawn),-17
CCc1cccc(NC(=O)C(CC(C)C)NS(=O)(=O)c2ccc3c(c2)CCN3C(C)=O)c1 (stereo not drawn),-17
CCOC(=O)CN1C(=O)C2(OCCCCO2)c2ccccc21,-20

Screening results (PubChem)
